Source: PubChem
CBX7 AlphaScr – blocks human CBX7 binding to H3K27me3 peptide; AlphaScreen His6-CBX7 / biotin-H3K27me3 peptide binding; active compounds read low; normalised signal (fraction of DMSO) (test concentration not listed); actives 1.1% (n = 66,000); in the data active means normalised signal below about 0.5;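 further: 100 nL library stock added to about 20 µL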
Target sequence (O95931 whole entry, looked up): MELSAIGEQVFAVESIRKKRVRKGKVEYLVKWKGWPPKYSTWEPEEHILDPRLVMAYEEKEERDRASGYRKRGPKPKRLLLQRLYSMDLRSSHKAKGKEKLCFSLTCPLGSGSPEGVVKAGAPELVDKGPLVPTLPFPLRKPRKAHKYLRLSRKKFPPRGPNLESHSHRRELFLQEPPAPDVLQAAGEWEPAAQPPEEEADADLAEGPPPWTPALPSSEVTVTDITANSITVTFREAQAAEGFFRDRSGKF
CBX7 AlphaScr z-score – also measured in CBX7 AlphaScr; calls as there; z-score; measured here: z-score of CBX7 signal; some inactives read as strong as hits; reference of the scale not given here;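 same signal on another scale; lower means less binding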
Numbers without * were called inactive; & = joins results of further samples. The list is partial, so the mix of outcomes need not match the whole.

Start of the data: the first 14 compounds (preview)
SMILES | CBX7 AlphaScr | CBX7 AlphaScr z-score
COc1ccc(CCN(C)C2CC(=O)N(c3ccc(Br)cc3)C2=O)cc1OC (configuration not stated) | 1 | 0.084
COc1ccc(Cl)cc1C(=O)Nc1ccc2nc(N3CCOCC3)cc(C)c2c1 | 0.99 | -0.19
Cc1ccc(S(=O)(=O)Nc2nc3ccccc3nc2Nc2ccccc2)cc1 | 1.1&0.8 | 1.7&-5.7
Cc1ccc(-c2nc3ncccc3o2)cc1NC(=O)COc1ccc(Br)cc1 | 1 | 0.51
CC(C)OCCCNC(=O)CN1CCN(Cc2ccc(F)cc2Cl)C1=O | 1.1 | 2.1
O=c1c2nnn(Cc3ccc(F)cc3)c2ncn1Cc1ccc(F)cc1 | 0.91 | -1.5
COc1ccc(C(=O)Nc2ccc(-c3nc4ccc(C)cc4s3)cc2)c(OC)c1 | 1 | 0.25
CCOc1ccccc1NS(=O)(=O)c1ccc(OC)cc1 | 1 | 0.89
CCOC(=O)c1cnc2ccccc2c1Nc1ccc(N2CCOCC2)cc1 | 1.1 | 1
O=C(c1csc2c1CCCCC2)N1CCN(c2ncccn2)CC1 | 1 | 0.86
CC(Sc1nnc(-c2ccco2)o1)C(=O)NC(c1ccccc1)c1ccccc1 (configuration not stated) | 0.94 | -1
Cc1cccc(NC(=O)c2c(-c3ccccc3Cl)noc2C)c1C | 0.92 | -0.5
CCn1cc(C(=O)N2CCCC2)c2cc(OC)c(OC)cc2c1=O | 1.2 | 2.1
O=C1CCc2cc(S(=O)(=O)NCCC(=O)NC3CCCCCCC3)ccc2N1 | 1 | 0.96

This part in full (from the top)
SMILES | CBX7 AlphaScr | CBX7 AlphaScr z-score
COc1ccc(CCN(C)C2CC(=O)N(c3ccc(Br)cc3)C2=O)cc1OC (configuration not stated) | 1 | 0.084
COc1ccc(Cl)cc1C(=O)Nc1ccc2nc(N3CCOCC3)cc(C)c2c1 | 0.99 | -0.19
Cc1ccc(S(=O)(=O)Nc2nc3ccccc3nc2Nc2ccccc2)cc1 | 1.1&0.8 | 1.7&-5.7
Cc1ccc(-c2nc3ncccc3o2)cc1NC(=O)COc1ccc(Br)cc1 | 1 | 0.51
CC(C)OCCCNC(=O)CN1CCN(Cc2ccc(F)cc2Cl)C1=O | 1.1 | 2.1
O=c1c2nnn(Cc3ccc(F)cc3)c2ncn1Cc1ccc(F)cc1 | 0.91 | -1.5
COc1ccc(C(=O)Nc2ccc(-c3nc4ccc(C)cc4s3)cc2)c(OC)c1 | 1 | 0.25
CCOc1ccccc1NS(=O)(=O)c1ccc(OC)cc1 | 1 | 0.89
CCOC(=O)c1cnc2ccccc2c1Nc1ccc(N2CCOCC2)cc1 | 1.1 | 1
O=C(c1csc2c1CCCCC2)N1CCN(c2ncccn2)CC1 | 1 | 0.86
CC(Sc1nnc(-c2ccco2)o1)C(=O)NC(c1ccccc1)c1ccccc1 (configuration not stated) | 0.94 | -1
Cc1cccc(NC(=O)c2c(-c3ccccc3Cl)noc2C)c1C | 0.92 | -0.5
CCn1cc(C(=O)N2CCCC2)c2cc(OC)c(OC)cc2c1=O | 1.2 | 2.1
O=C1CCc2cc(S(=O)(=O)NCCC(=O)NC3CCCCCCC3)ccc2N1 | 1 | 0.96
Cc1ccc(CCN2CC(C(=O)N3CCC(Cc4ccccc4)CC3)CC2=O)cc1 (configuration not stated) | 1 | 0.14
Cc1ccc(C)c(NC(=O)C2CCCN(S(=O)(=O)c3c(C)nn(C)c3C)C2)c1 (configuration not stated) | 1 | 0.25
Cc1ccc(Nc2nc(-c3cccc(C)c3)nc3ccccc23)cc1 | 1.5 | 10
COc1ccc(C2C(C(=O)Nc3ccccc3F)c3cc(OC)c(OC)cc3C(=O)N2C)cc1 (configuration not stated) | 1.1 | 0.65
COc1ccc(CCNS(=O)(=O)c2ccc3c(c2)CCN3C(=O)C2CC2)cc1OC | 0.97 | -0.71
CCOc1ccc(CCNC(=O)C2CC(=O)N(Cc3ccc(OC)cc3)C2)cc1OCC (configuration not stated) | 1 | 0.057
CCc1ccc2oc(-c3ccc(C)c(NC(=O)c4ccccc4F)c3)nc2c1 | 1 | 0.44
Cc1cc(C)cc(-n2ccnc2SCC(=O)Nc2nc3ccccc3s2)c1 | 0.97 | -1
Cc1ccc(C(=O)CSc2nc(-c3ccc(Cl)cc3)cn2-c2ccc(C)cc2)cc1 | 0.92 | -2.2
Cc1nc2c(cnn2-c2ccc(F)cc2)c(=O)n1-c1ccc(F)c(Cl)c1 | 1.1 | 0.75
CCCCN(C)C(=O)Cn1nc(Cc2cccnc2)c2ccccc2c1=O | 1.1 | 2.5
CC(C)c1ccc(-c2cc(C(=O)O)c3ccccc3n2)cc1 | 1 | 0.37
O=C1C2=C(Nc3ccccc3SC2c2ccc3c(c2)OCO3)c2ccccc21 (configuration not stated) | 0.35* | -10*
O=C(Nc1nnc(CCS(=O)(=O)c2ccc(Cl)cc2)s1)C1CCCCC1 | 1.1 | 0.26
COc1ccccc1C(=O)Nc1c(-c2ccccc2)nc2cc(C)ccn12 | 0.94 | -1.7
Cn1c(=O)c(C(=O)NCc2ccccn2)c(O)c2ccccc21 | 0.93 | -1.6
O=C(c1ccc2c(c1)N(Cc1cccc(Cl)c1)C(=O)c1ccccc1S2(=O)=O)N1CCCCC1 | 0.79 | -1.3
COc1ccc(-n2c3c(cc(C(=O)Nc4ccccc4OC)c2=O)C(=O)CC(C)(C)C3)cc1 | 1 | 2.4
CCN(CC)S(=O)(=O)c1ccc2oc(C(=O)N3CCCCC3)c(C)c2c1 | 0.92 | -0.85
CCCNC(=O)Cn1cnc2sc(C(=O)NCCN(CC)CC)c(C)c2c1=O | 1.1 | 2.4
FC(F)(F)c1cccc(Nc2c3c(nc4ccc(Cl)cc24)CCCC3)c1 | 1.1 | 0.07
Cc1cccc(-n2ccnc2SCC(=O)Nc2cccc(C(F)(F)F)c2)c1C | 0.84 | -0.16
CCOC(=O)C(C)Sc1nnc(Cc2cc(=O)[nH]c(=O)[nH]2)n1-c1ccc(Cl)cc1 (configuration not stated) | 1 | 0.034
O=C(C1CC1)N1CCc2cc(Br)cc(S(=O)(=O)Nc3ccc(C(F)(F)F)cc3)c21 | 1 | 2.1
Cc1nc2ncccn2c1-c1csc(Nc2ncccn2)n1 | 1 | 0.056
O=C(Nc1cccc(C(F)(F)F)c1)c1cc(-c2cccs2)on1 | 1.2 | 2.3
CCN(CCNC(=O)CN1C(=O)COc2ccccc21)c1ccccc1 | 0.99 | -0.49
Cc1cc(C(=O)NCCCN2CCOCC2)n(-c2ccccc2)n1 | 1 | 0.35
O=C(CSc1nccn1-c1cccc(Cl)c1)Nc1ccc(F)cc1F | 0.84 | -2.9
Cc1ccc(S(=O)(=O)C2(C(=O)Nc3ccc(Cl)cc3)CC2)cc1 | 1.1 | 1
CCC(=O)N1CCc2cc(S(=O)(=O)N3CCCCC3CC)ccc21 (configuration not stated) | 1 | 0.098
C=CCn1c(C2CC(=O)N(c3ccc(C)c(C)c3)C2)nc2ccccc21 (configuration not stated) | 1.1 | 0.84
Cc1cc(C)n2nc(CC(=O)NC3CCCC(C)C3C)nc2n1 (configuration not stated) | 1 | 0.29
O=C(CCn1c(=O)[nH]c2ccccc2c1=O)N1CCN(Cc2ccccc2)CC1 | 1.2 | 0.48
COc1cccc(Cc2nc3ccccc3[nH]c2=O)c1 | 1.2 | 1.8
CCC(C(=O)NC1CCCCC1)n1c(SCc2cccc(C)c2)nc2ccncc21 (configuration not stated) | 0.99 | -0.17
Following part:
SMILES | CBX7 AlphaScr | CBX7 AlphaScr z-score
COc1ccccc1CNC(=O)c1nc(-c2ccc(OC)c(OC)c2)oc1C | 0.93 | -1.2
CCC1Oc2ccc(C)cc2N(CC(=O)NCc2ccc(C)cc2)C1=O (configuration not stated) | 1 | 0.23
CC1CCC(NC(=O)Nc2ccc3snnc3c2)CC1 (configuration not stated) | 1 | 1.1
O=C(CN1CCN(Cc2ccc(Cl)cc2)C1=O)NC1CCCCCCC1 | 0.84 | -2.9
O=C(CC1(O)C(=O)N(Cc2ccc(Cl)cc2)c2ccccc21)c1ccc(F)cc1 (configuration not stated) | 0.75 | -0.43
C=CCn1c(C(C)NC(=O)Cc2ccccc2)nc2ccccc21 (configuration not stated) | 1.1 | 1
COc1ccc(N2C(=O)C(CC(=O)Nc3ccccc3)N(Cc3ccc(F)cc3)C2=O)cc1 (configuration not stated) | 0.99 | -0.22
COc1cccc(N2C(=O)CC(N3CCN(c4ccccc4)CC3)C2=O)c1 (configuration not stated) | 1.1 | 2.9
CCOc1ccc(Nc2nc(-c3sc(NC(=O)c4ccccc4)nc3C)cs2)cc1 | 0.42* | -14*
O=C(NCc1ccccc1)c1cc(-c2ccc(F)cc2)on1 | 1.1 | 0.14
COc1ccccc1Nc1ncc(C(=O)NCc2cccs2)c2ccccc12 | 1 | 0.66
Cc1ccn2c(Nc3ccccc3C)c(-c3ccncc3)nc2c1 | 0.95 | -1.3
O=C(NCc1cccnc1)c1cccc(NC2=NC3CS(=O)(=O)CC3S2)c1 (configuration not stated) | 1 | 0.25
COc1ccc(NC(=O)CCc2c(C)nc3cc(-c4cccc(F)c4)nn3c2C)cc1 | 0.98 | -0.93
COc1ccc(-c2csc(NC(=O)c3ccc(N4C(=O)CCC4=O)cc3)n2)cc1 | 1 | 0.35
CCOC(=O)c1cnc2c(C)cc(C)cc2c1Nc1cccc(Cl)c1C | 1.1 | 1.1
Cc1cc(C)cc(OC2CCCCC2NS(=O)(=O)c2ccc(Cl)cc2)c1 (configuration not stated) | 1.1 | 1.9
Cc1ccc(C2Nc3ccc4ncccc4c3C3=C2C(=O)CCC3)cc1 (configuration not stated) | 1 | 0.27
CCN(CC)S(=O)(=O)c1ccc2oc(C(=O)NCC3COc4ccccc4O3)c(C)c2c1 (configuration not stated) | 0.87 | -1.3
CN(C1CCCCC1)S(=O)(=O)c1ccc(C(=O)Nc2nnc(-c3ccccc3Cl)o2)cc1 | 0.91 | -0.37
COc1ccc(CC(=O)Nc2ccc(-c3noc(Cc4ccc(Cl)cc4)n3)cc2)cc1 | 1.1 | 0.62
CCCCOc1cccc(C(=O)Nc2sc3c(c2C(=O)OCC)CCCC3)c1 | 1.4 | 8.4
Cc1ccc2[nH]c(=O)c(CNS(=O)(=O)c3ccccc3)c(-c3ccccc3)c2c1 | 1 | 0.34
COc1ccccc1N1CCN(C(=O)c2c(-c3ccccc3Cl)noc2C)CC1 | 1.1 | 1.2
COc1ccc(C2=NOC(C(=O)N3CCCCC3C)C2)cc1 (configuration not stated) | 1 | 0.5
COc1cc(OC)cc(C(=O)Nc2nc3c(s2)C(=O)CC(C)(C)C3)c1 | 1 | -0.065
CCc1ccc(-c2nc(CN3CCC(C(=O)NC4CCCC4)CC3)c(C)o2)cc1 | 1.1 | 0.11
O=C(Nc1nc2ccccc2s1)c1ccc(-c2ccc(Cl)cc2)o1 | 0.99 | -0.11
O=C(Cn1ccc2ccccc2c1=O)Nc1ccc2c(c1)OCCO2 | 1.1 | 1.3
CCCCNC(=O)c1sc2ncn(CC(=O)N3CC(C)CC(C)C3)c(=O)c2c1C (configuration not stated) | 1.1 | 1.8
Cc1nn(C)c(C)c1S(=O)(=O)N(CC(=O)NCc1ccc(F)cc1)c1ccc(C(C)C)cc1 | 1 | 0.36
CCc1cccc(Nc2cc(C)nc3nc(C)nn23)c1 | 0.96 | -0.89
CCN1CCN(C(=O)C2=CCN(S(=O)(=O)c3ccc(Br)cc3)CC2)CC1 | 1 | 0.84
Cc1nc2c(-c3ccccc3)c(C)nn2c(C)c1CCC(=O)NCc1ccc2c(c1)OCO2 | 1.1 | 0.59
Cc1ccc(CCNC(=O)C2CCN(S(=O)(=O)c3ccc4c(c3)CCC(=O)N4)CC2)cc1 | 1 | -0.067
O=C(Nc1ccccc1-c1nc2ccccc2[nH]1)c1ccccc1Cl | 0.96 | -1.4
O=C(NC1CCCCC1)C1c2ccccc2C(=O)N1Cc1ccc(F)cc1 (configuration not stated) | 1 | 0.33
Cc1ccc(NC(=O)Cn2c(SCc3ccc(F)cc3)nc3ccncc32)cc1F | 1 | 1.6
CN1C(=O)C(O)(CC(=O)c2ccc(F)cc2)c2ccccc21 (configuration not stated) | 1 | 0.37
COc1ccc(CCNC(=O)CN2C(=O)CCSc3ccccc32)cc1OC | 1 | 1.8

Part of the list above, with two lines to a compound.
Values in the order – CBX7 AlphaScr	CBX7 AlphaScr z-score
CCC(C(=O)NC1CCCCC1)n1c(SCc2cccc(C)c2)nc2ccncc21 (configuration not stated)
  0.99	-0.17
COc1ccccc1CNC(=O)c1nc(-c2ccc(OC)c(OC)c2)oc1C
  0.93	-1.2

Continuation:
SMILES | CBX7 AlphaScr | CBX7 AlphaScr z-score
Cc1cc2c(cc1C)NC(CC(=O)NCc1ccccc1)C(=O)N2 (configuration not stated) | 0.9 | -0.42
O=C(CN1N=C(c2ccccc2)CCC1=O)NCCCN1CCCCCC1 | 1.1 | 1.1
Cc1ccc(-n2nc3c(c2NC(=O)c2cccc(Cl)c2)CS(=O)(=O)C3)cc1 | 1.1 | 0.62
CC1CCCN(C(=O)Cn2nc(Cc3cccnc3)c3ccccc3c2=O)C1 (configuration not stated) | 1.2 | 1.9
CCC(=O)N1CCc2cc(S(=O)(=O)CCC(=O)Nc3c(CC)cccc3CC)ccc21 | 1.1 | 1.3
CC(=O)Oc1ccc2occ(C(=O)c3oc(C)nc3C)c2c1 | 0.86 | -2
NS(=O)(=O)c1ccc(NC(=O)Cn2ncc3c2-c2ccccc2OC3)cc1 | 0.67 | -1.9
CCN1C(=O)c2ccccc2S(=O)(=O)c2ccc(C(=O)N3CCN(c4ccc(OC)cc4)CC3)cc21 | 0.84 | -4.5
Cc1ccc(-n2cc(C(=O)Nc3nc4c(C)cccc4s3)c3ccccc3c2=O)cc1C | 0.83 | -1.8
CCCCC(=O)N1CC(=O)Nc2ccc(F)cc2C1c1ccccc1 (configuration not stated) | 1.1 | 0.58
COc1ccc(C(=O)c2oc3ccccc3c2NC(=O)c2cccc(OC)c2)cc1 | 1.1 | 1.7
